# StopGo FLuc = FMDV 2A StopGo reporter, firefly signal; HEK cells with a luciferase reporter of 2A StopGo recoding; Potency, µM (highest dose often 57.5 µM), without a hit: top-dose signal change, negative = less light; 120,000 tested, 0.23% active; AID 1745856; active = well fitted falling curve with a large enough effect; inconclusive = small, poorly fitted or top-dose-only effect; inactive = no such curve, though single readings can be large or run the other way; also: nearly all actives have a fitted effect of over 60% in size; overnight with compound
# StopGo RLuc = lowers the Renilla signal of an FMDV 2A StopGo reporter. HEK cells with a luciferase reporter of 2A StopGo recoding. Potency, µM (highest dose often 57.5 µM), without a hit: at the top dose signal change, negative = less light. 120,000 tested, 0.32% active; active means well fitted falling curve with a large enough effect; inconclusive means small, poorly fitted or top-dose-only effect; inactive means no such curve, though single readings can be large or run the other way; also: nearly all actives have a fitted effect of over 55% in size; overnight with compound
# The depositor's hits bear a star; ? = inconclusive; [ ] = another dose, or the depositor's remark. % is scaled to controls: 0 for no effect and ±100 for the full control effect; potency is read from the fitted curve at half-maximal effect. A portion of the library; rates above refer to the full screens.
smiles | StopGo FLuc | StopGo RLuc
CS(=O)(=O)c1ccccc1-c1nnc(NC(=O)c2ccc3c(c2)OCCO3)o1 | -7% | -9%
Cc1c(OS(C)(=O)=O)ccc2c3c(c(=O)oc12)CCCC3 | 19% | 18%
COc1cccc(CNCC(O)COc2ccc(C(C)=O)cc2OC)c1 (centres undefined) | -18% | 10%
CN(C(=O)c1ccc2ncsc2c1)C1CCCCC1 | 64%[activator] | 45%[activator]
Cc1ccc2occ(CC(=O)N(Cc3ccc(N(C)C)cc3)C3CCS(=O)(=O)C3)c2c1 (centres undefined) | -23% | 8%
Cc1cccc(NC(=O)c2cc3c(cc2C)OCCCO3)c1 | 174%[activator] | 0%
COc1ccc2cc(C(C)C(=O)NC3CCCCC3C)ccc2c1 (centres undefined) | -13% | -11%
CCc1ccc(C(=O)NCc2ccc(N3CCN(C)CC3)nc2)o1 | 14% | -14%
Cc1cc(Cl)ccc1OCC(=O)N(Cc1ccc(Cl)cc1)CC1CCCO1 (centres undefined) | ? | -25%
Cc1cccc(N2C(=O)C(CC(=O)Nc3ccccc3)N(C3CCCCC3)C2=O)c1 (centres undefined) | -10% | 23%
Cc1cccc(N2CCN(c3c4c(nc5nncn35)CCC4)CC2)c1C | 0% | -8%
O=C(Nc1cccc(CNCc2ccccn2)c1)c1cccc(F)c1 | -11% | -19%
COc1ccc(CC(=O)N2N=C(c3ccccc3)CC2(O)C(F)(F)F)cc1 (centres undefined) | 3% | 9%
CC(=O)c1c(-c2ccc(C)cc2)nc2n(CCN3CCOCC3)c3ccccc3n12 | -10% | -13%
Cc1ccc(NC(=O)CCCN2C(=O)COc3ccc(C)cc32)c(Cl)c1 | 15% | -30%
CCN1CCN(C(=O)Cc2c[nH]c3ccccc23)CC1 | 17% | -8%
CC(C#N)OC(=O)c1cc(-c2cccs2)nc2ccccc12 (centres undefined) | -4% | -13%
CC1CCCN(S(=O)(=O)c2ccc(-c3nc(C#N)c(NCCCN(C)C)o3)cc2)C1 (centres undefined) | -3% | 87%[activator]
COC(=O)c1ccc2c(c1)N(CC(=O)Nc1cccc(Cl)c1C)C(=O)c1ccccc1S2 | -8% | -5%
Cc1nc(SC(C)c2ccc(F)c(F)c2)sc1CC(N)=O (centres undefined) | 60%[activator] | 10%
O=C(NCCC(=O)N1CCCCCC1)c1cc(=O)[nH]c2ccccc12 | 29% | -5%
Clc1cc(Cl)c(N/N=C/c2ccccc2Br)c(Cl)c1 | 56%[activator] | 25%
COc1ccc(NC(=O)CCc2c[nH]c3ccccc23)cc1 | 113%[activator] | 15%
CC(C)CNC(=S)Nc1cccc(Cl)c1 | ? | 20%
CC(=O)Oc1ccc2c(=O)c(Oc3ccccc3Br)c(C)oc2c1 | 1% | -6%
CCc1c(C)sc(NC(=O)CCl)c1C#N | -2% | -9%
Cc1cccc(OCC(=O)Nc2ccc3c(c2)nc(CCn2nc(C)cc2C)n3C)c1 | ? | ?
CC(C)N1Cc2nnn(Cc3ccccc3)c2-c2ccccc2S1(=O)=O | 8% | 132%[activator]
O=C(Nc1ccc(F)c(Cl)c1)c1nn(Cc2ccccc2)c(=O)c2ccccc12 | 14% | 6%
COc1cc(OC)c(NC(=O)C(C)n2c(=O)cc(-c3ccccc3)c3c(C)nn(C)c32)cc1Cl (centres undefined) | 6% | -4%
CC(Oc1ccc(F)cc1)C(=O)NCC1(N(C)C)CCCCC1 (centres undefined) | 0% | 3%
CC1CCN(CCCNC(=O)c2cc(=O)c3ccccc3o2)CC1 | -18% | -13%
CCOC(=O)c1ccc(NC(=O)CSc2ccc(-c3ccccn3)nn2)cc1 | -18% | -13%
O=Cc1cccn1-c1ccc(Cl)c(Cl)c1 | 8% | -14%[1.06 µM]
Cc1cc(F)ccc1NC(=O)Cn1nc(N2CCN(c3ccccc3)CC2)ccc1=O | -11% | -14%
COc1ccccc1/C=C/c1nc(C#N)c(NC(C)c2ccccc2)o1 (centres undefined) | 19% | 51%[activator]
CCCc1cc2c(=O)c(-c3ccc4c(c3)OCCCO4)coc2cc1OS(C)(=O)=O | 182%[activator] | 19%
O=C(/C=C/c1cccc(O)c1)c1cccs1 | 176%[activator] | -9%[1.06 µM]
COCCN(Cc1ccco1)C(=O)c1ccc(S(C)(=O)=O)cc1 | 0% | -2%
C=CCNc1oc(COc2ccccc2OC)nc1C#N | ? | ?
CCOC(=O)C(CC)n1nnc2sc(-c3ccccc3)cc2c1=O (centres undefined) | 108%[activator] | 5%
Cc1ccccc1NS(=O)(=O)c1nnc(NC(=O)c2ccco2)s1 | -15% | -3%
COc1cc(NC(=O)c2cccc3c2C(=O)N(C2CCCCC2)C3)cc(OC)c1OC | ? | -11%
CCc1c(C)sc(NC(=O)C(C)(C)C)c1C#N | 9% | 30%[activator]
Cc1ccccc1C(=O)NC1(C(F)(F)F)N=C(c2ccccc2)N(Cc2ccco2)C1=O (centres undefined) | -18% | -5%

# Full records from above. Order of screens: StopGo FLuc	StopGo RLuc
# Profile of Cc1ccccc1C(=O)NC1(C(F)(F)F)N=C(c2ccccc2)N(Cc2ccco2)C1=O (centres undefined) → -18%	-5%
# Profile of CCOC(=O)C(CC)n1nnc2sc(-c3ccccc3)cc2c1=O (centres undefined) → 108%[activator]	5%
# Profile of COCCN(Cc1ccco1)C(=O)c1ccc(S(C)(=O)=O)cc1 → 0%	-2%
# Profile of COc1ccccc1/C=C/c1nc(C#N)c(NC(C)c2ccccc2)o1 (centres undefined) → 19%	51%[activator]
# Profile of COc1cc(NC(=O)c2cccc3c2C(=O)N(C2CCCCC2)C3)cc(OC)c1OC → ?	-11%

# (more compounds)
smiles | StopGo FLuc | StopGo RLuc
CC(C)Cn1nc(C(=O)OCC(=O)NCC(F)(F)F)c2ccccc2c1=O | 0% | 1%
COC(=O)c1ccc(/C=N/OCCOc2ccccc2Cl)cc1 | 22% | 28%
CCOc1ccccc1OCc1nn2c(C(C)C)nnc2s1 | 7% | 2%
CC(=O)c1ccc(OCC(=O)c2ccc3c(c2)OCO3)cc1 | 158%[activator] | 51%[activator]
O=C(O)Cn1cc(C(C(=O)O)N2CCN(Cc3cccc(Cl)c3)CC2)c2ccc(F)cc21 (centres undefined) | -6% | -11%
CCOC(=O)C1=C(N)OC(C)=C(C(=O)OCc2ccccc2)C12C(=O)Nc1ccccc12 (centres undefined) | ? | -1%
O=C1CC(c2ccccc2O)Cc2nc(N3CCN(c4cccc(C(F)(F)F)c4)CC3)ncc21 (centres undefined) | 8.9µM* | 4µM*
Cc1cccc(OCCN2CCC(CO)CC2)c1 | 13% | 9%
O=C1CC(c2cccc(Cl)c2)c2cc(Br)c3ccccc3c2N1 (centres undefined) | -6% | -17%
O=S(=O)(c1ccc2nc(N3CCN(c4ccccc4F)CC3)ccc2c1)N1CCCCC1 | 10% | 7%
COc1ccc(Cc2nc3c4c(C)c(C)n(CCN(C)C)c4ncn3n2)cc1OC | 1% | -3%
Cc1cccc2nc(COc3ccc4ccc(=O)oc4c3)cc(=O)n12 | 170%[activator] | 3%
Cn1nc(C(=O)Nc2cc(-c3cccc(Cl)c3)no2)c2c1-c1ccccc1OC2 | 4% | -10%
COc1ccc(C)cc1NC(=O)C(=O)NCCc1csc2nc(-c3ccccc3F)nn12 | -20% | -24%
Cc1ccc(-n2ncc3c(NCCCc4ccccc4)ncnc32)cc1 | 36%[activator] | -6%

# 3 consecutive entries from above, for reference:
smiles | StopGo FLuc | StopGo RLuc
CS(=O)(=O)c1ccccc1-c1nnc(NC(=O)c2ccc3c(c2)OCCO3)o1 | -7% | -9%
Cc1c(OS(C)(=O)=O)ccc2c3c(c(=O)oc12)CCCC3 | 19% | 18%
COc1cccc(CNCC(O)COc2ccc(C(C)=O)cc2OC)c1 (centres undefined) | -18% | 10%

# More structures follow.
smiles | StopGo FLuc | StopGo RLuc
CN(C)c1ncccc1CNC(=O)c1ccc2c(c1)CCC(=O)N2 | 11% | 8%
Cc1ccsc1/C=C(\C#N)C(=O)NC1CC1 | 267%[activator] | 13%
CC1CCN(c2nc3ccc(C(=O)NC(C)C)cc3s2)CC1 | ? | 8%
CCCCCn1cc2c(c1-c1ccc(Cl)cc1)c(=O)n(C)c(=O)n2C | -18% | -12%
COc1ccc(CN(C(=O)COc2ccc(C)cc2)c2ccccn2)cc1OC | 89%[activator] | -1%
CC1=C(c2ccc(C)c(C)c2)S(=O)(=O)N=C1N1CCC(C(=O)NCc2ccc(N(C)C)cc2)CC1 | -6% | 30%[activator]
COc1cc(NC(=O)COc2coc(CN3CCSCC3)cc2=O)cc(OC)c1 | -7% | 12%
CN(C)CCc1c[nH]c2ccccc12 | 5%[44.2 µM] | -3%[129 µM]
O=C(COc1ccc(F)cc1)NC1CC(=O)N(c2ccc3c(c2)OCCO3)C1 (centres undefined) | 10% | -1%
COc1ccc(NC(=O)CSCc2cc(=O)c3cc(Cl)ccc3[nH]2)cc1 | -1% | 15%
Cc1ccc(C)c(S(=O)(=O)Nc2ccc(S(=O)(=O)C3CCCC3)cc2)c1 | -3% | 125%[activator]
N#Cc1cccc(CNCC(c2ccccc2)N2CCCC2)c1 (centres undefined) | -7% | 6%
O=C1C2C3c4ccccc4C(C(=O)O)(c4ccccc43)C2C(=O)N1c1ccccc1C(F)(F)F (centres undefined) | 18% | 7%
CCCn1nc(C(=O)Nc2nc3ccccc3s2)c2ccccc2c1=O | 145%[activator] | 16%
C[C@H](NC(=O)C(c1ccccc1)c1ccccc1)C(=O)O | 12% | 11%
Cc1ccc(C(=O)CSc2nnnn2C)cc1C | 59%[activator] | 4%
CCOC(=O)c1c(NC(=O)CS(=O)(=O)c2ccc(C)cc2)sc2c1CCC(C)C2 (centres undefined) | -16% | -3%
Cc1cccc(-c2nc3c4ccccc4nc(NCc4ccc(Cl)cc4)n3n2)c1 | 41%[activator] | -4%
COCCN(CC(=O)NC(=O)NCC(F)(F)F)Cc1ccccc1 | -6% | 14%
COc1ccccc1CNC(=O)C1CCN(c2nn3c(=O)cc(C)nc3s2)CC1 | 0% | 0%
O=C(Nc1ccc(Nc2ccccc2)nc1)c1cccc[n+]1[O-] | 147%[activator] | -4%
Cc1ccc2oc3c(c(=O)c2c1)C(c1ccc(F)cc1)N(Cc1ccc2c(c1)OCO2)C3=O (centres undefined) | -15% | -9%
O=C(NCCCN1CCCC1=O)C1CCCCC1 | 19% | 10%
CCn1ccc2cc(S(=O)(=O)N3CCC(C(=O)NCCN4CCCCC4)CC3)ccc21 | 3% | 11%
CCCOC(=O)C(C)Oc1ccc2c(=O)c(-c3ccccc3Cl)coc2c1 (centres undefined) | 7% | 1%
Cc1ccc(-c2n[nH]c(=O)c3ccccc23)cc1S(=O)(=O)NC(C)C | 18% | 186%[activator]
CC(C)COc1cccc(C(=O)Nc2ccc(-c3nc4ncccc4o3)cc2)c1 | 4% | -5%
O=S(=O)(Nc1ccc(-c2ccc(N3CCCCCC3)nn2)cc1)c1cccc(C(F)(F)F)c1 | 46%[activator] | 57%[activator]
N#CCCC(C#N)Cn1nc(-c2ccc(F)cc2)c2ccccc2c1=O (centres undefined) | -3% | -7%
CCc1ccc(OCC2c3cc(OC)c(OC)cc3CCN2C(=O)c2ccc(S(=O)(=O)N3CCCC3)cc2)cc1 (centres undefined) | -5% | -7%
CCc1ccc(-c2cc3c(=O)[nH]nc(SCC(=O)NC(C)C)n3n2)cc1 | 114%[activator] | -7%
CCOC(=O)c1ccccc1NC(=O)Cc1c(C(=O)O)c(C)cn1C | -6% | -7%
Cc1cc(C)c(NC(=O)CN(c2ccccc2)S(=O)(=O)N(C)C)c(C)c1 | -4% | 17%
CCN1C(=O)CCc2cc(NS(=O)(=O)CC)ccc21 | 17% | 9%
COc1ccc(CCNC(=O)CCn2c(=O)c3cccn3c3cccnc32)c(OC)c1OC | 2% | -11%
Cc1cc(C)c(NC(=O)Cn2cnc3c2c(=O)n(C)c(=O)n3C)c(C)c1 | -6% | -9%
CCC(=O)N1CCc2cc(S(=O)(=O)NC(CC(C)C)C(=O)NCc3cccc(OC)c3)ccc21 (centres undefined) | -14% | 21%
Cc1nc(Nc2nc3ccccc3s2)ncc1C(=O)Nc1cccc(C(F)(F)F)c1 | 56%[activator] | -4%
Cc1cc(C)c2oc(C(=O)N(Cc3ccco3)c3ccccn3)cc(=O)c2c1 | -2% | 33%[activator]
Cc1occc1-c1nnc(SCC(=O)NC(C)C)o1 | 6% | -5%
CCCCc1ccc(-n2nc3ccc(NC(=O)c4cc5ccccc5o4)cc3n2)cc1 | -28% | -23%
O=C1CSc2ccc(C(=O)Nc3cccc4cccnc34)cc2N1 | 101%[activator] | 21%
CC(=O)c1cccc(NC(=O)c2ccccc2SC(C)C)c1 | 0% | 36%[activator]
O=C(Nc1ccc2nc(N3CCN(C4CCCCC4)CC3)cc(C(=O)O)c2c1)c1ccc(Cl)cc1 | -3% | -9%
CC1CCN(S(=O)(=O)c2ccc3c(c2)c(=O)c(C(=O)N2CCN(c4cccc(Cl)c4)CC2)cn3C)CC1 | -11% | -11%
CCOc1ccc(CNCc2cccs2)cc1OC | 0% | 7%
COc1cccc(/C=C/C(=O)c2ccc(O)cc2)c1 | 109%[activator] | 12%
Cc1ccc(NC(=O)CCNC(=O)c2ccccc2Cl)cc1S(=O)(=O)N1CCCCCC1 | ? | 3%
CSCCC(NS(=O)(=O)c1ccc2c(c1)oc(=O)n2C)C(=O)NCc1ccc(Cl)cc1 (centres undefined) | -20% | 4%
O=C(Nc1ccc(F)c(Cl)c1)C1CCCN(c2cnccn2)C1 (centres undefined) | -6% | -7%
O=C(Nc1ccccc1Cl)c1cnc2ccccc2n1 | 182%[activator] | 1%
O=c1c(-c2ccccc2)nnc2sc(-c3cccc(F)c3)nn12 | 160%[activator] | -9%

# Source: PubChem
